Bioassay records (PubChem)
TRPML1 inh = blocks the human TRPML1 channel | Q9GZU1 | TRPML1-inducible cells, Ca2+ dye fluorescence, FDSS; stronger effect = lower value; inhibition of EC80 agonist-evoked calcium signal | activity change, negative = inhibition, % (no concentration beside the values) | 0.02% of 390,000 active | AID 624415; in the data active means activity change below about -50%; inconclusive means about -30% to -50%; inactive means above about -30%;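 note: stimulus is agonist 54-4 at its EC80 concentration; % is set by controls: 0 for no effect and ±100 for the full control effect; compound concentration not given in the record; the text of the record puts the active cut at -80%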
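TRPML1-DL cells, Tet-induced overnight (~16 h, 37 °C) at 1,500 cells/well, were loaded with Ca8 no-wash dye plus quencher for 45-90 min at room temperature. Compounds were pinned during FDSS kinetic reading; agonist 54-4 at EC80 (4 uM final) then added.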
CtBP-E1A inh = blocks the CtBP interaction with E1A; AlphaScreen GST-E1A/His-CtBP binding, 1536-well; stronger effect = lower value; control for the full effect not named in the record; activity change, % (test concentration not listed); 0.49% of 340,000 active; AID 651724; in the data active means activity change below about -65%; inconclusive means about -30% to -65%; inactive means above about -30%; note: % is set by controls: 0 for no effect and ±100 for the full control effect; compound concentration not given in the record
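AlphaScreen with 125 nM GST-E1A and 125 nM His-CtBP (5X stocks) in Tris pH 8.0, 300 mM NaCl, BSA, Tween 20, TCEP. Compounds preincubated 2 h at 37 deg C, then glutathione donor/nickel acceptor beads added for 1 h at 37 deg C in dark.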
TRPML1 ag = activates the human TRPML1 channel; Q9GZU1; TRPML1-expressing cells, Ca2+ dye fluorescence, FDSS; host cell line not named in the record; reference of the full effect not given here; activation, % (concentration not given with the values); 0.12% of 410,000 active; AID 624414; in the data active = activation above about 50%; inconclusive = about 30% to 50%; inactive = below about 30%; note: 0% is about no effect; the text of the record puts the active cut at 80%
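Tet-induced TRPML1-DL cells, 1,500 per well, cultured overnight, were loaded with a no-wash Ca2+ dye for 45–90 min. Calcium fluorescence was recorded on the FDSS for 110 s after compound addition, before the EC80 agonist (4 uM 54-4) was added.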
Six1-Eya2 blk = Six1/Eya2 interaction inhibition | Q15475+O00167 | AlphaScreen GST-Six1/His-Eya2 binding, biochemical; stronger effect = lower value; control for the full effect not named in the record | activity change, % (no concentration beside the values) | 0.56% of 360,000 active | AID 651725; in the data active = activity change below about -65%; inconclusive = about -30% to -65%; inactive = above about -30%; note: % is set by controls: 0 for no effect and ±100 for the full control effect; compound concentration not given in the record
Target sequence (O00167 whole entry, looked up): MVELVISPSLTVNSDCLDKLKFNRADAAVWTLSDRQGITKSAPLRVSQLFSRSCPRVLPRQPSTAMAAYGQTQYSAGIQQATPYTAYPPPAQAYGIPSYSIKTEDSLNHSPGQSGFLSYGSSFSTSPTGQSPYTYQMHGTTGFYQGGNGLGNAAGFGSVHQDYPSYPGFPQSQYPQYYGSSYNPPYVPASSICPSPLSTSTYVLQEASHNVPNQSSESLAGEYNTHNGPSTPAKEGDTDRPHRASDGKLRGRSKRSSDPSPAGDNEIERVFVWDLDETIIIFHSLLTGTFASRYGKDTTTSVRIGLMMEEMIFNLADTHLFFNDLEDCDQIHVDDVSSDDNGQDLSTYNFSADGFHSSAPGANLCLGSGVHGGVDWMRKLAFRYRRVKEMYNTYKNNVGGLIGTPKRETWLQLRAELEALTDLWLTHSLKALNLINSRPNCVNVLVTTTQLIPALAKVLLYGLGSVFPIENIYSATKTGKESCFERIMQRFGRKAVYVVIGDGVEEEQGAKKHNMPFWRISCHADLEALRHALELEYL
Target sequence (Q15475 whole entry, looked up): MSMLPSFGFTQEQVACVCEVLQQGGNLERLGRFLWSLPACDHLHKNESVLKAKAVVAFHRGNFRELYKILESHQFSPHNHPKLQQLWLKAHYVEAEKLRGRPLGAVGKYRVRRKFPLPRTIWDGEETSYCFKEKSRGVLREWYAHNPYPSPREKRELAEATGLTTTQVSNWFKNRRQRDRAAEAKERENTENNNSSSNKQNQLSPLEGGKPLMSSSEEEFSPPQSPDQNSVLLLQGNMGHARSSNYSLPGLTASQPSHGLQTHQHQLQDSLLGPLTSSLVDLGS
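AlphaScreen with GST-Six1 and His-Eya2 (5X mix: 250 nM and 500 nM), glutathione donor and nickel acceptor beads; buffer 50 mM Tris pH 8.0, 300 mM NaCl, 1 mM TCEP; 1 h at 37 C in the dark.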
PINK1 modulator = modulators of PINK1 expression. PINK1 immunofluorescence, high-content cytometry, 24 h. Potency, µM (top dose mostly 76.6 µM), without a hit: top-dose activation (PINK1 increase), usual class: activators. 0.2% of 410,000 active; active = well fitted activation curve with a large enough effect; inconclusive = small, poorly fitted or top-dose-only effect; inactive = flat fitted curve, though single readings scatter; cell line not stated here;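 note: potency is the fitted concentration of half-maximal effect; % of control where 0% means no effect; nearly all actives have a fitted effect of over 65% in size; a mitochondrial uncoupler was the plate control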
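PINK1 protein, normally rapidly degraded, was detected by immunofluorescence after 24 hour compound treatment of a stable cell line. Titration data (5 concentrations) came from laser-scanning cytometry, with CCCP-treated wells as controls.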
D2 ag = human D2 receptor agonism in beta-arrestin assay; P14416; DiscoveRx PathHunter D2 beta-arrestin, luminescence, 90 min; 100% = 57 uM dopamine signal; activation, % (no concentration beside the values); 0.084% of 360,000 active; AID 624465; in the data active = activation above about 40%; inconclusive = about 15% to 40%; inactive = below about 15%; note: compound concentration not given in the record; the text of the record calls up to 30% inactive
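DiscoveRx PathHunter D2 beta-arrestin cells (2,100/well) attached overnight, then compound-stimulated 90 min at 37 C in HBSS/10 mM HEPES/0.1% Tween-20 buffer; beta-galactosidase complementation read by luminescence after 1 h at ambient temperature. Dopamine 57 uM final (EC100) as control.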
* hit, by the source's call; ? = inconclusive; . = not tested or not shown; [ ] = another dose, or the depositor's remark.

Values run as follows: D2 ag, CtBP-E1A inh, TRPML1 ag, PINK1 modulator, Six1-Eya2 blk, TRPML1 inh
- Cc1ccccc1C(=O)Nc1nc(-c2ccc(Br)cc2)ns1
 : ., ., 1.5, 25µM*, ., 46
- Cc1cccc(C(=O)NCC(=O)OCc2cc(=O)n3nc(C)sc3n2)c1
 : ., ., -0.1, -0.8%, ., -13
- COC(=O)[C@]1(Cc2ccccc2)N[C@H](CN(C)C(=O)c2ccc(F)cc2)[C@@H]2C(=O)N(C)C(=O)[C@@H]21
 : -2.8, -22, 1.3, -1.7%, 3, 1
- O=C(CCCN1C(=O)c2cccnc2Oc2ccc(Cl)cc21)NCc1ccccc1F
 : ., ., 2.4, -0.4%, ., 8
- CCCN(C(=O)CSCc1ccc(Cl)cc1)c1c(N)n(Cc2ccccc2)c(=O)[nH]c1=O
 : 3.5, 11, -0.8, 0.9%, -2, -5
- CCCCCCCc1nc2nc(C)c(Br)c(=O)n2[nH]1
 : 1.1, 2, 1.0, 1.8%, -1, 8
- Cn1cnc(NCc2ccccc2)c1[N+](=O)[O-]
 : -3.9, ., -0.3, 2.2%, -2, 55
- Cc1ccccc1Nc1nnc(SCC2CCCCO2)s1 (centres undefined)
 : -3.1, 2, -0.1, -0.9%, 1, -9
- Cc1nc2c(nnn2Cc2ccccc2)c(=O)[nH]1
 : -3.6, 4, -0.1, -0.7%, -9, -26
- Cc1ccc(Nc2ncc3c(n2)CC(C)CC3=O)c(C)c1 (centres undefined)
 : -3.9, -12, 3.7, 1.3%, 4, 15
- Cc1ccccc1OCC(=O)Nc1ccc(-c2nc3cc(Cl)cc(Cl)c3o2)cc1
 : ., ., -0.6, 5.3%, ., -20
- COc1ccc(C(=O)NC23CC4CC(CC(C4)C2)C3)cc1
 : 0.1, ., 1.6, -1.1%, 4, -7
- COc1ccccc1/C=C/C(=O)NNC(=O)c1cc(C)oc1C
 : -0.5, -6, 0.4, -0.9%, 2, 9
- Cc1ccc(NC(=O)C2CC(c3ccc(F)cc3)=NO2)cc1 (centres undefined)
 : 1.5, 5, 2.3, 0.6%[38.3 µM], 4, 44
- COc1ccc2cc(C(c3nnnn3C3CCCC3)N3CCc4ccccc4C3)c(=O)[nH]c2c1 (centres undefined)
 : -1.7, -13, 0.3, 7.7%, -6, -9
- Cc1ccc2c(=O)c(C(=O)c3cccc(Cl)c3)cn(CC(=O)Nc3ccccc3C(F)(F)F)c2n1
 : ., ., 1.6, 1.1%, ., -21
- COC(=O)c1cccc(Oc2nc3c(c(=O)n(C)c(=O)n3C)n2Cc2ccc(C)cc2)c1
 : -1.2, 3, 2.9, -0.2%, -2, 27
- Cc1nc(NC(=S)Nc2ccccc2)sc1C
 : -5.6, -3, 1.5, 1.8%, -3, 8
- CN1C(=O)CSc2ccc(NC(=O)NCc3ccccc3)cc21
 : -2.0, ., -1.2, 3.6%, 7, 4
- Cc1nc(C)c(-c2csc(Nc3ccc(F)cc3)n2)s1
 : 1.3, 15, 0.0, 2.4%, -3, 2
- O=C(COC(=O)c1nc(Cl)ccc1Cl)Nc1cccc(S(=O)(=O)N2CCOCC2)c1
 : -3.6, 6, 0.4, 0.4%, 16, -9
- CC(Sc1nnc(-c2ccco2)n1N)C(=O)NC1CCCCC1C (centres undefined)
 : -3.2, -18, 0.4, -0.7%, 7, -9
- CC1C(=O)N(Cc2cn(CCC3OCCO3)nn2)CCS(=O)(=O)N1Cc1ccc(-c2ccc(F)nc2)cc1 (centres undefined)
 : 1.3, 3, ., 1.7%, 0, .
- CC(Sc1nnc2n1CCCCC2)C(=O)Nc1cccc(S(=O)(=O)N2CCOCC2)c1 (centres undefined)
 : 3.7, -8, 0.5, -0.6%, 5, -3
- CCN(Cc1ccccc1)C(=O)c1cc(-c2ccccc2)n[nH]1
 : ., ., 0.9, -0.3%, ., 22
- Nc1cccc(C(=O)Nc2ccccc2Cl)c1
 : -3.6, 11, -0.8, 1.8%, 7, -2
- CCOC(=O)c1oc2c(c1C)/C(=N/O)CCC2
 : -1.3, -3, 0.7, -1.9%, -83*, 8
- CCOC(=O)C1=C(Cn2ccc(C(F)(F)F)n2)NC(=O)NC1c1ccc2c(c1)OCO2 (centres undefined)
 : -2.7, 0, -0.1, 2.9%, -4, -6
- O=C(CSc1nnc(-c2ccc(F)cc2)n1-c1ccccc1)NCCN1C(=O)CSC1=O
 : -2.8, 1, 0.4, -0.9%, -13, 34
- CN(C(=O)c1cccc(NC(=O)Cc2ccc(NC(=O)C3CCN(C(=O)C4CC4)CC3)cc2)c1)C1CCCC1
 : -0.6, -4, 0.0, -0.1%, 3, 35

Random excerpt: 2 records from the list
Values run as follows: D2 ag, CtBP-E1A inh, TRPML1 ag, PINK1 modulator, Six1-Eya2 blk, TRPML1 inh
- CC1C(=O)N(Cc2cn(CCC3OCCO3)nn2)CCS(=O)(=O)N1Cc1ccc(-c2ccc(F)nc2)cc1 (centres undefined)
 : 1.3, 3, ., 1.7%, 0, .
- CC(Sc1nnc(-c2ccco2)n1N)C(=O)NC1CCCCC1C (centres undefined)
 : -3.2, -18, 0.4, -0.7%, 7, -9

(list continues)
Values run as follows: D2 ag, CtBP-E1A inh, TRPML1 ag, PINK1 modulator, Six1-Eya2 blk, TRPML1 inh
- COCCCNC(=O)C[C@H]1C[C@H](C(=O)N2CCCCC2)[C@@]2(C)c3[nH]c4cc(-c5ccco5)ccc4c3CCN2C1=O
 : -1.5, -5, -0.7, -0.1%, -6, -16
- O=C(Nc1ccc2c(c1)OCCO2)C(c1ccnc2ccccc12)N1CCN(c2ccc(C(F)(F)F)cn2)CC1 (centres undefined)
 : 3.7, -13, -0.4, 2.6%, -11, .
- C#CCOCCOCCOCCNc1nc(N2CCN(C(=O)C([C@@H](C)O)n3cc([C@@H](N)CCCCN)nn3)CC2)nc(N2CCN(C(=O)[C@H](CCCN=C(N)N)n3cc(C(N)[C@@H](C)CC)nn3)CC2)n1 (some centres undefined)
 : -8.7, -10, -0.2, 0.7%, -1, -5
- COc1ccc(C2C(C(=O)C(C)(C)C)=C(O)C(=O)N2Cc2ccccc2)cc1 (centres undefined)
 : -6.5, 6, -0.5, -2.5%, 11, 2
- COc1cc(-c2[nH]ncc2CN(C)Cc2nonc2C)cc(OC)c1OC
 : -4.0, ., 0.2, -0.4%, 10, 9
- O=C(Nc1nc(-c2ccco2)c(-c2ccco2)s1)c1ccc(F)cc1F
 : -0.2, -4, 0.1, ?, ?, 6
- CCCOP(=O)(OCCC)C(NC(=O)C(C)(C)C)c1ccccc1 (centres undefined)
 : 2.2, 5, 2.1, -0.8%, 6, 1
- COC(C)(C)c1cc(C(C)(C)C)nc(N)n1
 : 0.9, 2, -0.4, 4.6%[38.3 µM], 5, 0
- CC(=O)NC(Cc1ccc(F)c(F)c1)C(=O)NC1CCN(c2c(Cc3ccccc3)c(C)nc3ncnn23)CC1 (centres undefined)
 : 0.5, -1, 0.5, 0.8%, 5, 12
- CC(C)Oc1ccc(-c2cc(C(=O)NCCN3CCOCC3)c3ccccc3n2)cc1
 : -3.5, -1, -0.5, 0.3%, 0, 4
- CCOc1ccc(NC(=O)COC(=O)CCCc2c[nH]c3ccccc23)cc1
 : -1.0, -18, 1.4, 2.7%[38.3 µM], -15, 3
- CCOc1ccccc1C(=O)Nc1ccc(S(=O)(=O)Nc2cc(OC)nc(OC)n2)cc1
 : -3.5, -6, 0.0, -1.3%, -19, -6
- COc1ccc2oc(C(=O)Nc3nc4ccccc4[nH]3)c(C)c2c1
 : -0.9, ., -0.7, 3.8%, 3, 6
- Cn1cnc(S(=O)(=O)N2CCN(c3cccc(Cl)c3)CC2)c1
 : 0.5, -3, 0.1, 1.0%, 0, -20
- CCC(=O)NC(NC(=S)Nc1ccccc1Br)C(Cl)(Cl)Cl (centres undefined)
 : 1.1, 5, 1.1, 3.9%, 2, 1
- NC(=O)C1(N2CCCCC2)CCN(c2ccc3nnc(-c4ccccc4)n3n2)CC1
 : ?, -26, -1.0, 4.9%, -20, -5
- Cc1ccccc1-c1nc(CN2CCC(C(=O)NCCc3ccccc3)CC2)c(C)o1
 : ., ., -0.4, -0.9%, ., 1
- N#CC(c1ccc(Cl)cc1)N1CCOCC1 (centres undefined)
 : -5.7, ., 0.5, 0.7%, 9, 48
- CCOC(=O)c1cnc2ccc(C(=O)OC)cc2c1Nc1ccc(C(=O)O)cc1
 : -1.0, -9, -0.2, 2.7%, 8, 27
- Cc1ccc(S(=O)(=O)N2CCN(Cc3cc(Br)ccc3O)CC2)cc1
 : ., ., 3.9, -0.3%, ., -13
- COc1ccc(OCC(=O)Nc2ccccc2OC(F)F)cc1
 : 1.4, -17, 0.6, 3.7%, 12, 19
- Clc1cc2c(c(CSc3nc4ccccc4n4cccc34)c1)OCOC2
 : -4.2, 2, 1.3, 8.7%, 1, 37
- CC(=O)c1cccc(NC(=O)C(C)OC(=O)c2ccc(Br)o2)c1 (centres undefined)
 : 0.2, 6, 0.3, -1.4%, 1, 0
- COc1cc(C=O)c(Br)cc1OCc1ccc(C)cc1
 : -1.4, 30, -0.3, -1.9%[38.3 µM], 20, -9
- COCCNc1nc(Nc2ccc(F)cc2)c2sccc2n1
 : -4.6, -14, -0.7, 0.1%, -3, .
- CC(OC(=O)CCCOc1ccccc1)C(=O)NC(N)=O (centres undefined)
 : -1.5, 10, 0.0, -1.3%, 1, 11
- CCOC(=O)Nc1n[nH]c(NC(=O)OCC)c1[N+](=O)[O-]
 : -7.8, -18, -0.6, -1.5%, -25, 2
- Cn1c(=O)c2c(SCC(=O)NCC3CCCO3)nc(-c3ccccc3Cl)nc2n(C)c1=O (centres undefined)
 : -2.9, 9, -0.6, 4.7%, 0, -18
- COC(=O)c1ccc(C(=O)OC)c(NC(=O)CN2CCC(C)CC2)c1
 : -1.4, 0, 1.3, 4.2%, -5, 21
- Cn1nc(C2CC2)cc1NC(=O)CC(CC(=O)O)c1ccccc1 (centres undefined)
 : -1.3, 7, -0.8, 1.9%, -5, -4
- O=C(O)C12CC3CC(C1)CC(n1ncc(NCc4ccco4)c(Cl)c1=O)(C3)C2
 : -1.2, 6, -0.4, -0.2%, 17, -1
- CCOC(=O)C1=C(C)NC(=O)NC1c1ccc(F)cc1 (centres undefined)
 : -1.4, 6, 0.3, 2.4%, 6, 1
- Cc1ccccc1NC(=S)NC(=O)c1cc(-c2ccccc2)nc2ccccc12
 : -8.9, -17, -0.3, -0.7%, -16, 20
- CCCc1c(-c2ccccc2F)ncn1Cc1ccccc1OC
 : ., -2, -0.4, ?, -11, .
- Cn1cc(Cc2ccccc2)c(=O)c(Cc2ccccc2)c1
 : -2.7, 10, 0.3, 2.4%, 4, 23
- O=S(=O)(NNc1ncc(C(F)(F)F)cc1Cl)c1ccc(F)cc1F
 : ?, ., -0.6, 3.6%, -1, 2
- CCC(C(=O)OCC(=O)Nc1c(Cl)cc(Cl)cc1Cl)c1ccccc1 (centres undefined)
 : -0.1, ., 2.0, 5.0%, 3, ?
- CCCCN(CCCNC(=O)c1cc(Nc2cccc(SC)c2)nc2ccccc12)Cc1ccccc1
 : ., ., 0.2, 6.3%, ., -13
